Screening results: PubChem, Southern Research Institute
Mtb growth: Mycobacterium tuberculosis H37Rv growth inhibition, cell based, confirmatory dose response (AID 1949); most inactive calls were filed without a number and no value below 0 was filed; inhibition, % at 10 µg/mL; hits with a dose series show IC50 in µg/mL; 100,000 tested, 1.6% active;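 active = confirmed in a dose series; inconclusive = about 50% or more but not retested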;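 note: bacteria grown 7 days with compound before Alamar blue readout; 0% = untreated bacteria and 100% = reference antibiotic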
* hit, by the source's call. Only part of the results is shown (hit frequency here may not be typical).

For COc1ccc(C(=O)NNC(=O)c2ccc(OC)c(OC)c2)cc1Br the results were Mtb growth inactive.
For CNC(=S)NNC(=O)COc1ccc(F)cc1Cl the results were Mtb growth inactive.
For CNC(=S)N1N=C(c2ccc(OC)cc2)CC1c1ccc(N(C)C)cc1 (stereo not given) the results were Mtb growth 1.0%.
`COc1cc(C(N)=O)cc(Br)c1OC` gave Mtb growth inactive.
Screening N#Cc1c(-c2cccs2)cc(-c2ccccc2)nc1SCc1ccccn1 returned Mtb growth 14.1%.
CCSc1nc2ccccc2n1C(=O)c1ccc(S(=O)(=O)N2CCCCC2)cc1 was read as Mtb growth inactive.
Screening COc1ccc(CNC(=O)C2CC2c2ccccc2)cc1 (stereo not given) returned Mtb growth 0.4%.
Cc1c(C(=O)Nc2ccccc2)sc2ncn(C(C)C(=O)OCc3ccccc3)c(=O)c12 (stereo not given) was read as Mtb growth inactive.
`O=C(COc1ccc2c3c(c(=O)oc2c1)CCC3)c1ccccc1` gave Mtb growth inactive.
Cc1ccc(S(=O)(=O)N2CCC(C)CC2)cc1C(=O)O was read as Mtb growth inactive.
O=S(=O)(NCc1ccccn1)c1ccc(-c2ccc(Cl)cc2)cc1 was read as Mtb growth inactive.
For Cc1ccc([N+](=O)[O-])cc1NC(=O)C(C)Oc1ccc(Cl)cc1C (stereo not given) the results were Mtb growth inactive.
COc1ccc(S(=O)(=O)N(C)c2ccc(C(=O)N3CCCCC3)cc2)cc1 was read as Mtb growth inactive.
Screening CCOC(=O)C1=C(C)N(Cc2ccccc2)C(=O)NC1c1ccccc1F (stereo not given) returned Mtb growth inactive.
Cc1cc(C(F)F)n2nc(C(=O)Nc3cc(F)ccc3C)nc2n1 was read as Mtb growth inactive.
`COC(=O)Cc1c(C)c2ccc(OCC(=O)N3CCC(C)CC3)c(C)c2oc1=O` gave Mtb growth inactive.
For O=C(NCc1ccncc1)c1cccc(COc2ccc(Cl)cc2)c1 the results were Mtb growth 21.8%.
`CCc1ccc(OCCNC(=O)OC)cc1` gave Mtb growth inactive.
COc1ccc(C(=O)CSc2nccc(=O)[nH]2)cc1 was read as Mtb growth 0.9%.
Screening O=C(OCc1ccc(Cl)cc1Cl)C(O)c1ccccc1 (stereo not given) returned Mtb growth inactive.
For NC(=O)C1CCN(CC(=O)Nc2ccc(Oc3ccccc3)cc2)CC1 the results were Mtb growth inactive.
Screening CC1CC(CC(C)C(=O)Nc2ccc(Cl)cc2Cl)C(=O)O1 (stereo not given) returned Mtb growth inactive.
O=C1CC(SCc2nc3ccccc3[nH]2)C(=O)N1c1cccc(F)c1 (stereo not given) was read as Mtb growth inactive.
`COC(=O)Oc1ccc2c(=O)c(Oc3ccccc3Cl)coc2c1` gave Mtb growth 3.5%.
`COc1ccc(OC)c(N(CC(=O)Nc2cccc(C)c2)S(=O)(=O)c2ccc(OC)c(OC)c2)c1` gave Mtb growth inactive.
For O=C(CSc1ccccc1)Nc1ccc(F)c(F)c1 the results were Mtb growth inactive.
`Cc1cc(C(C)(C)C)cc(S(=O)(=O)Nc2c(C)n(C)n(-c3ccccc3)c2=O)c1C` gave Mtb growth inactive.
`COc1cc(S(=O)(=O)Nc2cccnc2)ccc1F` gave Mtb growth inactive.
c1ccc(Cc2nc3ccccc3n2CCOc2ccccc2)cc1 was read as Mtb growth 1.1%.
For CCCC(C)NC(=O)CN(c1ccc(Cl)c(C(F)(F)F)c1)S(=O)(=O)c1ccccc1 (stereo not given) the results were Mtb growth 1.1%.
`CCCCS(=O)(=O)c1nc2c(cc1C#N)CCCC2` gave Mtb growth inactive.
COc1cc(CNC(C)(C)CO)ccc1OCc1ccc(Cl)cc1 was read as Mtb growth inactive.
CCOC(=O)Nc1cc(C)ccc1OC was read as Mtb growth inactive.
`CCNS(=O)(=O)c1ccc(NC(=S)NCCCOC)cc1` gave Mtb growth inactive.
`Cc1sc(C=O)cc1COc1ccc(F)cc1Cl` gave Mtb growth 3.0%.
`COC(=O)CNC(=O)CNC(=O)Nc1ccccc1Cl` gave Mtb growth inactive.
`O=C(Nc1nc2ccccc2s1)c1ccc(S(=O)(=O)N2CCOCC2)cc1` gave Mtb growth inactive.
`Cn1c(=O)n(Cc2ccccc2Cl)c2ccccc21` gave Mtb growth inactive.
Screening CCOC(=O)C1CCN(C(=S)NC2CC2)CC1 returned Mtb growth inactive.
For Cc1ccccc1/C(N)=N/OC(=O)c1ccc(I)cc1 the results were Mtb growth 2.8%.

Ordered by molecular weight (smallest number first): some entries from above
CCOC(=O)Nc1cc(C)ccc1OC was read as Mtb growth inactive.
Screening CCOC(=O)C1CCN(C(=S)NC2CC2)CC1 returned Mtb growth inactive.
`CCCCS(=O)(=O)c1nc2c(cc1C#N)CCCC2` gave Mtb growth inactive.
For O=C(CSc1ccccc1)Nc1ccc(F)c(F)c1 the results were Mtb growth inactive.
`COc1cc(S(=O)(=O)Nc2cccnc2)ccc1F` gave Mtb growth inactive.
Screening CC1CC(CC(C)C(=O)Nc2ccc(Cl)cc2Cl)C(=O)O1 (stereo not given) returned Mtb growth inactive.
COc1cc(CNC(C)(C)CO)ccc1OCc1ccc(Cl)cc1 was read as Mtb growth inactive.

Entries from the list above that have a cyano group (2):
Screening N#Cc1c(-c2cccs2)cc(-c2ccccc2)nc1SCc1ccccn1 returned Mtb growth 14.1%.
`CCCCS(=O)(=O)c1nc2c(cc1C#N)CCCC2` gave Mtb growth inactive.

The listing picks up, repeating the two entries before the break.
Screening CCOC(=O)C1CCN(C(=S)NC2CC2)CC1 returned Mtb growth inactive.
For Cc1ccccc1/C(N)=N/OC(=O)c1ccc(I)cc1 the results were Mtb growth 2.8%.
`COC(=O)C(C)n1cnc2sc(C(=O)Nc3ccccc3OC)c(C)c2c1=O` (stereo not given) gave Mtb growth inactive.
`CN(CCOCCOc1ccc(I)cc1)Cc1ccccc1` gave Mtb growth 6.75µg/mL*.
`COc1cccc(/C=C/c2cc(C(F)(F)F)[nH]c(=O)n2)c1OCC(=O)O` gave Mtb growth 5.2%.
Screening COc1ccc(S(=O)(=O)N(C)CC(=O)Nc2ccc(Oc3ccccc3)cc2)cc1OC returned Mtb growth inactive.
Screening Cc1cccc(C(C)(C)C)c1OCCCCNCCO returned Mtb growth inactive.
For Clc1ccc(OCC#CCN2CCCC2)cc1 the results were Mtb growth inactive.
`CCOC(=O)N1CCN(C(=O)CN(c2ccc(C)cc2)S(=O)(=O)c2ccc(F)cc2)CC1` gave Mtb growth inactive.
Screening O=C(NN1CCOCC1)c1cc(Br)ccc1Cl returned Mtb growth inactive.
Screening Cc1ccc(NC(=O)C23CCC(C2)C(C)(C)C3=O)c(C)c1 (stereo not given) returned Mtb growth inactive.
For O=C(c1ccccc1)C(c1ccccc1)n1nnc2ccccc21 (stereo not given) the results were Mtb growth inactive.
For CCOC(=O)c1ccc(NC(=S)NCCSc2ccc(Cl)cc2)cc1 the results were Mtb growth inactive.
For CCN(CC)S(=O)(=O)c1ccc(NC(=O)CN(c2cccc(C)c2)S(=O)(=O)c2ccccc2)cc1 the results were Mtb growth inactive.
`Cc1cc(C)n(C(=O)COc2ccc(C(C)C)cc2Br)n1` gave Mtb growth inactive.
Screening CCOc1ccc(C(=O)NC(=S)Nc2nc(-c3ccc(OC)cc3)cs2)cc1Cl returned Mtb growth inactive.
CCN(CC)CCSc1nc(O)c(CC(C)C)c(=O)[nH]1 was read as Mtb growth inactive.
Screening COc1ccc(C(=O)NCCSc2ccccn2)cc1 returned Mtb growth inactive.
Screening Cc1cccc(-n2c(/C=C/c3c[nH]c4ccccc34)nc3ccc(I)cc3c2=O)c1 returned Mtb growth inactive.
Cc1ccc(SCCNC(=S)Nc2cccc(Cl)c2C)cc1 was read as Mtb growth inconclusive.
`CC(C)c1cccc(OCCOc2cccc3cccnc23)c1` gave Mtb growth inconclusive.
`Cc1cccc(NC(=O)CSc2nnc(-c3ccc(Cl)cc3)n2-c2ccc(F)cc2)c1C` gave Mtb growth 0.9%.
For COc1ccc(CCNC(=S)Nc2ccc(C(=O)N3CCOCC3)cc2)cc1OC the results were Mtb growth inactive.
COc1cc(OC)c(NC(=O)c2cc(Br)ccc2Cl)cc1Cl was read as Mtb growth 1.8%.
O=C(c1cc2ccccc2oc1=O)N(Cc1ccco1)C1CCS(=O)(=O)C1 (stereo not given) was read as Mtb growth inactive.
O=C(Nc1ccc(Cl)cc1Cl)c1ccc(C(=O)Nc2ccc(Cl)cc2Cl)nc1 was read as Mtb growth 4.1%.
COc1ccc(/C=C/c2nc3ccc(I)cc3c(=O)n2Cc2ccccc2)cc1 was read as Mtb growth 5.8%.
COc1ccccc1OCCOCCN1CCCC(C)C1 (stereo not given) was read as Mtb growth inactive.
Screening Cc1cc(OCC(=O)Nc2ccccc2C(=O)O)ccc1C(C)C returned Mtb growth inactive.
For O=C1Cc2ccccc2C(=O)N1CCc1ccccc1 the results were Mtb growth inactive.
O=C1CC(NC2CCCCC2)C(=O)N1c1ccc(I)cc1 (stereo not given) was read as Mtb growth inactive.
`NC(=O)c1c(NC(=O)c2ccc(Cl)c(Cl)c2)sc2c1CCCC2` gave Mtb growth 14.0%.
For O=c1[nH]c2ccc(S(=O)(=O)Nc3cccc4ccccc34)cc2[nH]1 the results were Mtb growth inactive.
Screening CCc1c(C)nc(SCC(=O)Nc2cc(C(F)(F)F)ccc2Cl)[nH]c1=O returned Mtb growth inactive.
Screening Cc1ccccc1NC(=O)c1ccccc1Cl returned Mtb growth inactive.
Screening O=C(COc1ccc(S(=O)(=O)NCc2ccccc2)cc1Cl)Nc1ccccc1C(F)(F)F returned Mtb growth 1.4%.
COc1cc(-c2n[nH]c(=S)n2-c2ccc(C)cc2C)cc(OC)c1OC was read as Mtb growth inactive.
`CCC(=O)NC(c1ccccc1OC)c1cc([N+](=O)[O-])c2cccnc2c1O` (stereo not given) gave Mtb growth inactive.
For O=C(Oc1ccc(Br)cc1C(=S)N1CCCC1)c1ccccc1F the results were Mtb growth 5.2%.
CCOCC(=O)Nc1nc(-c2ccccc2)cs1 was read as Mtb growth inactive.
`COc1ccccc1C(=O)NC(=S)Nc1cccc(C(F)(F)F)c1` gave Mtb growth 2.0%.
Screening COc1cccc(NC(=O)N2CCN(c3cccc(C)c3C)CC2)c1 returned Mtb growth inactive.
Screening CCOc1ccccc1OCCCN1CCNCC1 returned Mtb growth inactive.
`Cc1ccc(C(=O)NC(=S)Nc2cc(C(=O)O)ccc2Cl)cc1Cl` gave Mtb growth inactive.
N#Cc1cc2c(=O)n3ccccc3nc2n(Cc2ccccc2)c1=NC(=O)C1CCCCC1 was read as Mtb growth inactive.
CC1=C(C(=O)Nc2ccccc2)C(c2ccc(Br)cc2)N2C(=O)CSC2=N1 (stereo not given) was read as Mtb growth inactive.
COc1cccc(CN2CCN(C(=O)c3ccncc3)CC2)c1OC was read as Mtb growth inactive.
Screening O=C(O)c1cc(NS(=O)(=O)c2ccc(Cl)cc2)cc(C(=O)O)c1 returned Mtb growth inactive.
For COC(=O)c1ccc(NC(=O)c2ccc3c(c2)C(=O)N(CC2CCCO2)C3=O)cc1 (stereo not given) the results were Mtb growth inactive.
Screening COc1ccc(CC(=O)NNC(=O)c2cccs2)cc1OC returned Mtb growth 0.9%.
For CCCCOc1ccc2c(=O)c(-c3ccccc3)coc2c1 the results were Mtb growth 3.0%.
Cc1cccc(N2CCN(C(=O)NC3CCCCC3)CC2)c1C was read as Mtb growth 5.4%.
For O=C(c1cn(Cc2ccccc2)c2ccccc12)C1CC1 the results were Mtb growth inactive.
For CCc1cccc(C)c1NC(=O)CN(c1ccc(C)c(C)c1)S(=O)(=O)c1ccc(Cl)cc1 the results were Mtb growth inactive.
For Clc1ccccc1-c1nc2ccccc2[nH]1 the results were Mtb growth 3.1%.
`CC(C)c1ccc(OCC(=O)Nc2ccc(CN3CCOCC3)cc2)cc1` gave Mtb growth inactive.
`CC(C)OCC(O)CN1CCN(Cc2ccc3c(c2)OCO3)CC1` (stereo not given) gave Mtb growth inactive.
For COc1ccc(-c2cc(=O)c3cc(OC(=O)CCc4ccccc4)ccc3o2)cc1 the results were Mtb growth inactive.
For CC12CCC(C(=O)N(c3ccccc3)c3ccccc3)(OC1=O)C2(C)C (stereo not given) the results were Mtb growth inactive.
For CC(C)(C)c1ccc(-c2nc(C#N)c(N3CCOCC3)o2)cc1 the results were Mtb growth inconclusive.
Screening Cc1cc(C)c(NC(=O)c2ccccc2[N+](=O)[O-])c(Cl)c1 returned Mtb growth 12.3%.
For CN1CCN(CCOCCOc2ccc(Cl)c(Cl)c2)CC1 the results were Mtb growth inactive.

Nothing new here: an excerpt of the list.
Screening CCOc1ccccc1OCCCN1CCNCC1 returned Mtb growth inactive.
`Cc1ccc(C(=O)NC(=S)Nc2cc(C(=O)O)ccc2Cl)cc1Cl` gave Mtb growth inactive.
N#Cc1cc2c(=O)n3ccccc3nc2n(Cc2ccccc2)c1=NC(=O)C1CCCCC1 was read as Mtb growth inactive.
CC1=C(C(=O)Nc2ccccc2)C(c2ccc(Br)cc2)N2C(=O)CSC2=N1 (stereo not given) was read as Mtb growth inactive.
COc1cccc(CN2CCN(C(=O)c3ccncc3)CC2)c1OC was read as Mtb growth inactive.

Next section:
For COc1ccc(CCNS(=O)(=O)c2cc(/C=C/C(=O)O)ccc2C)cc1OC the results were Mtb growth 2.9%.
Screening Cc1cc(C)cc(C(=O)N2CCOCC2)c1 returned Mtb growth inactive.
Screening O=S(=O)(NNc1ccccc1)c1cccs1 returned Mtb growth inactive.
`Cc1ccc(S(=O)(=O)N(CC(=O)Nc2c(C)cccc2C)c2ccccc2C)cc1` gave Mtb growth inactive.
For CCOC(=O)NC(=O)CSc1ccccn1 the results were Mtb growth inactive.
For Cc1cc(I)ccc1NC(=S)NC(=O)C(C)(C)C the results were Mtb growth 6.6%.
`O=C(CCc1nc2ccccc2[nH]1)Nc1ccc(F)cc1` gave Mtb growth inactive.
